Marburg entry inh: qHTS for inhibitors of binding or entry into cells for Marburg Virus; Marburg virus pseudotyped entry inhibition, cell reporter; control for the full effect not named in the record; about a third of the inactives were read at about 46 µM; Potency, µM (top dose mostly 37.8 µM), inactives show top-dose activity change, negative = inhibition, most hits filed as inhibitors; 300,000 compounds, 1.8% hits; active = well fitted inhibition curve with a large enough effect; inconclusive = small, poorly fitted or top-dose-only effect, or effect the other way; inactive = flat fitted curve, though single readings scatter; tested in HEK293 cells; about a fifth of its hits are not listed in these tables; note: % is set by controls: 0 for no effect and ±100 for the full control effect; luciferase read-out
Cruzain noTriton: qHTS Assay for Promiscuous and Specific Inhibitors of Cruzain (without detergent); Cruzipain (Trypanosoma cruzi), P25779; purified cruzain, Z-FR-AMC fluorescence, no detergent; Potency, µM, inactives show max response, negative = inhibition, usual class: inhibitors; 200,000 compounds, 2.3% hits;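 note: plate controls were enzyme without inhibitor for no effect and buffer without enzyme for full effect; nearly all actives have a fitted effect of over 40% in size; top concentration of the series not given in the record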
Target sequence (P25779 123-467 limits assumed): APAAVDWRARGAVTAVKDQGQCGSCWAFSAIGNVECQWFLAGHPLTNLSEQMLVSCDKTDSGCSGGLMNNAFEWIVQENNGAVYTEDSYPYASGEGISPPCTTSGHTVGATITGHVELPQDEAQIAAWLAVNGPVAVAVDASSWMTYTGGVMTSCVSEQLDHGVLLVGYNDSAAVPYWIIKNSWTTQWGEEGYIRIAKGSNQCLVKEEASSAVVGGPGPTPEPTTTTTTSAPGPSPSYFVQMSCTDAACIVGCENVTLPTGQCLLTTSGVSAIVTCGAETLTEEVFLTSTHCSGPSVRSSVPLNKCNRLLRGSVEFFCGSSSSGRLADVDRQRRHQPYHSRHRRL
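Purified cruzain at 1.5 nM, pre-incubated 15 min with compound at room temperature in 100 mM sodium acetate pH 5.5, 5 mM DTT, 0.00005% Triton X-100. Reaction started with 2 uM Z-FR-AMC; AMC fluorescence increase over 60 s gives rate.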
SARS PLP yeast: qHTS of Yeast-based Assay for SARS-CoV PLP; S. cerevisiae expressing SARS-CoV PLpro, growth rescue; control for the full effect not named in the record; 330,000 compounds, 0.19% hits; Potency, µM (highest dose often 32.9 µM), without a hit: top-dose activity, positive = growth rescue; active means well fitted rising curve with a large enough effect; inconclusive means small, poorly fitted or top-dose-only effect; inactive means no such curve, though single readings can be large or run the other way; note: 0% is about no effect; nearly all actives have a fitted effect of over 55% in size; growth read by luminescence after 48 h
NS1 function inh: qHTS Assay for Inhibitors of Influenza NS1 Protein Function | S. cerevisiae slowed by influenza A NS1, growth recovery by OD600 | Potency, µM (doses to about 46.1 µM), for the others: top-dose activity, positive = more growth | 270,000 compounds, 0.4% hits; active means well fitted rising curve with a large enough effect; inconclusive means small, poorly fitted or top-dose-only effect; inactive means no such curve, though single readings can be large or run the other way; note: nearly all actives have a fitted effect of over 50% in size
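Recovery from NS1-induced slow growth read by OD600 in budding yeast switched to galactose assay medium (pH 6.0, -URA) at 1:100 dilution. Compound 23 nl per well; the matching strain lacking NS1 serves as control.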
RE007 growth inh: qHTS Assay for Inhibitors of the HIV-1 protein Vpr; S. pombe RE007 Vpr strain, BacTiter-Glo ATP luminescence, 24 h; control for the full effect not named in the record; Potency, µM (highest dose often 92.2 µM), inactives show at the highest dose activity change, negative = less growth; 360,000 compounds, 0.21% hits; AID 651644, 2012; active = well fitted falling curve with a large enough effect; inconclusive = small, poorly fitted or top-dose-only effect; inactive = no such curve, though single readings can be large or run the other way;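 note: % is set by controls: 0 for no effect and ±100 for the full control effect; nearly all actives have a fitted effect of over 50% in size; the assay follows cell death caused by Vpr and the record does not say whether a fall means rescue or toxicity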
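Fission yeast RE007 carrying one integrated HIV-1 vpr copy, seeded at OD 0.01 in PMG+AL medium with 23 nL pinned compound. Grown 24 h at 30 degrees; viability read by BacTiter-Glo luminescence after 5 min.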
Cruzain Triton: qHTS Assay for Promiscuous and Specific Inhibitors of Cruzain (with detergent); 200,000 compounds, 0.43% hits; AID 1478, 2009; Cruzipain (Trypanosoma cruzi), P25779; Potency, µM, for inactives: max response, negative = inhibition, hits mostly inhibitors; purified cruzain, Z-FR-AMC fluorescence, 0.01% Triton;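 note: plate controls were neutral wells for no effect and buffer without enzyme for full effect; nearly all actives have a fitted effect of over 40% in size; top concentration of the series not given in the record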
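Detergent-containing run (0.01% Triton X-100) in acetate buffer pH 5.5 with 5 mM DTT: enzyme at 1.5 nM final, 15 min compound preincubation at room temperature, then 2 uM Z-FR-AMC substrate. Activity taken as 60 s fluorescence increase at 360/450 nm.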
LASV entry inh: qHTS for Inhibitors of binding or entry into cells for Lassa Virus; Lassa virus pseudotype entry inhibition, cell reporter; control for the full effect not named in the record; Potency, µM (top dose mostly 37.9 µM), without a hit: at the highest dose activity change, negative = inhibition, actives largely listed as inhibitors; 300,000 compounds, 1.2% hits; active means well fitted inhibition curve with a large enough effect; inconclusive means small, poorly fitted or top-dose-only effect, or effect the other way; inactive means flat fitted curve, though single readings scatter; tested in HEK293 cells; note: % is set by controls: 0 for no effect and ±100 for the full control effect; nearly all actives have a fitted effect of over 50% in size; luciferase read-out
2A StopGo: High Throughput Screening for Foot and Mouth Disease Virus Antivirals; AID 1159524, 2015; human cells with a luciferase reporter of 2A StopGo recoding; control for the full effect not named in the record; 410,000 compounds, 1.2% hits; Potency, µM (highest dose often 57.9 µM), for inactives: at the highest dose signal change, negative = less light; active = well fitted falling curve with a large enough effect; inconclusive = small, poorly fitted or top-dose-only effect; inactive = no such curve, though single readings can be large or run the other way; tested in HEK293T cells; note: % is set by controls: 0 for no effect and ±100 for the full control effect; nearly all actives have a fitted effect of over 45% in size; luciferase light after 4 h
* = called active by the depositor; ? = inconclusive; . = not tested or not shown; [ ] = remark or other dose. Unless noted, calls come from the whole dose curve; as a rule, active = well fitted curve in the direction sought with a large enough effect; inconclusive = small, poorly fitted or top-dose-only effect, or another doubt; inactive = no such curve, though single readings can be large; an effect the other way counts as inactive or inconclusive. Potency is the fitted concentration of half-maximal effect.

SMILES	Marburg entry inh	Cruzain noTriton	SARS PLP yeast	NS1 function inh	RE007 growth inh	Cruzain Triton	LASV entry inh	2A StopGo
COc1ccc(Cl)c(Cn2c(NCCN)nc3c2c(=O)n(C)c(=O)n3C)c1	-26%[46.1 µM]	-30%	.	.	.	-1.5%	18%[46.1 µM]	5%
Oc1ccc(C=Nc2cccc3ccccc23)c(O)c1	?	.	1%	29%	3%	.	-20%[46.1 µM]	4%
CCOC(=O)CNC(=O)c1ccc2[nH]c3ccccc3c2c1	.	.	0%	-4%	-3%	.	.	15%
Cc1cccc(C)c1NC(=S)N(CCCN1CCCCC1)Cc1ccco1	?	.	-2%	.	-8%	.	19%	-7%
CCOC(=O)c1c(C)[nH]c(C)c1S(=O)(=O)NCC(=O)NCc1cccc(Br)c1	.	-3%	.	.	.	-3.4%	5%[46.1 µM]	18%
CCOC(=O)c1cn[nH]c1N	-5%	0%	1%	5%	9%	2.0%	-3%	0%
Cc1c(Cl)cccc1NC(=O)CCNC(=O)N1CC(=O)Nc2ccccc21	?	.	4%	1%	0%	.	-4%[46.1 µM]	0%
COc1cccc(NC(=O)c2sc(-n3nc(C)c(Cc4ccccc4Cl)c3C)nc2C)c1	-6%[46.1 µM]	0%	.	.	.	0.1%	-15%[46.1 µM]	?
CC(=O)NC1C(=O)N=C(SCC(=O)NC2CCCCC2)NC1=O (stereo not given)	0%	-5%	8%	-4%	7%	3.4%	5%	.
COC(=O)c1ccccc1NC(=O)c1cc([N+](=O)[O-])nn1Cc1ccccc1	-17%	-6%	12%	4%	6%	-4.0%	-2%	-26%
Cc1cccc(OCC(=O)NC(=S)NNC(=O)c2ccncc2)c1	2%	.	-7%	-13%	3%	.	?	-4%
c1ccc2c(c1)-c1ccccc1C2N1CCOCC1	1%[46.1 µM]	.	.	.	16%	.	25%[46.1 µM]	-11%
CCOc1ccc2nc(NC(=O)c3cnc(C)cn3)sc2c1	-23%	9%	-7%	-4%	-24%	6.2%	-22%	1%
O=C(NNC(=S)Nc1ccc(Br)cc1Cl)c1ccncc1	2%	16%	-26%	2%	-8%	2.5%	?	46%[activator]
COC(=O)C1=CN(C)C=C(C(=O)OC)C1c1ccc(O)c(OC)c1	-4%	-2%	-1%	-3%	4%	0.6%	-3%	-21%
Cc1ccc(/C=N/NC(=O)Cc2cccn2C)s1	10%	11%	1%	2.8µM*	-5%	-9.5%	?	50%[activator]
CC1=CC(=C(C#N)C#N)C=C(C)N1Cc1ccc(Cl)cc1	-12%[46.1 µM]	.	3%	.	-14%	.	11%	-8%
O=C(COc1ccc2c(c1)oc(=O)c1ccccc12)NC(Cc1ccc(Cl)cc1)C(=O)O (stereo not given)	.	.	7%	11µM*	12%	.	.	-16%
Cc1ccc(S(=O)(=O)c2cn(CC(=O)Nc3cccc(C)c3)c3cc4c(cc3c2=O)OCO4)cc1	?	?	.	.	.	-5.4%	22%[46.1 µM]	1%
O=C(O)c1ccc(NS(=O)(=O)c2ccc(C(=O)Nc3ccccc3)cc2)cc1	24%	.	3%	-8%	-7%	.	?	-5%
CCOc1ccc(OCCC(=O)NNC(=O)c2ccncc2)cc1	?	.	-3%	.	25%	.	-2%	-17%
CCOC(=O)N1CCN(C(=O)c2ccc(NC(=O)CC)cc2)CC1	-1%	3%	0%	1%	9%[3.69 µM]	1.1%	15%	10%
CCn1cc2nc(SCc3cccc(OC)c3)n(Cc3ccc(Cl)cc3)c(=O)c2n1	?	?	.	.	.	0.7%	?	-26%
COc1ccc(-c2nc3c(c(SCC(=O)N4CCCCC4)n2)Cc2cc(Cl)ccc2O3)cc1	0%[46.1 µM]	6%	.	.	.	-2.2%	18%[46.1 µM]	-9%
Nc1nc(Cl)nc(N(c2ccccc2)c2ccccc2)n1	3%	-5%	13%	-6%	6%	-1.3%	26%	-28%
CCn1c(=O)n(CC)c2cc(N3CCCCC3)c(NC(=O)Nc3cc(C)cc(C)c3)cc21	.	10%	.	.	.	-7.9%	?	-25%
Cc1ccc(NS(=O)(=O)c2cccc3nsnc23)cc1C	-8%	.	-2%	1%	5%	.	-24%	70%[activator]
O=C(Nc1ccccc1C(=O)NCC1CCCO1)c1ccco1 (stereo not given)	8%	7%	1%	10%	-12%	2.2%	4%	-5%
CCOc1c(Cl)cc(Cl)cc1CNCCNCCO	?	-2%	-6%	-6%	4%	2.6%	-17%	12%
C/C(=N\Nc1ccccn1)c1ccc(N2CCOCC2)cc1	13%[46.1 µM]	.	-1%	.	-13%	.	-13%[46.1 µM]	12%
O=C(Cn1c(=O)n(Cc2ccccc2)c(=O)c2sc3ccccc3c21)NCc1ccccc1Cl	7%[46.1 µM]	0%	.	.	.	-1.7%	?	0%
O=C(CNS(=O)(=O)c1c(Cl)cccc1Cl)OCc1csc(-c2ccccc2)n1	-5%	-1%	-46%	-35%	-14%	-6.6%	12%	25%
Cc1cc(C)c(S(=O)(=O)NCCc2ccncc2)c(C)c1	.	.	-1%	1%	-6%	.	.	81%[activator]
CCCCOc1ccccc1NC(=O)c1scc2c1OCCO2	?	.	-10%	.	77%	.	?	?
Cn1cc(S(=O)(=O)N2CCc3ccccc3C2)c(=O)n(C)c1=O	.	-15%	-2%	?	1%	-1.0%	.	-3%
O=C1NCCCC1C(=O)Nc1cccc(C(F)(F)F)c1 (stereo not given)	-4%	-3%	-5%	-6%	5%	0.7%	-4%	0%
O=C(Nc1nc(-c2ccccc2Cl)cs1)c1cccnc1	-15%	-19%	1%	6%	-7%	-2.5%	4%	?
CN(CC(=O)Nc1ccccc1Cl)C(=O)COC(=O)c1cccs1	9%	.	-11%	.	27%	.	-6%	-6%
COCCCNC(=O)CCCCCNS(=O)(=O)c1ccc(Br)cc1	-1%[46.1 µM]	.	4%	.	3%	.	-3%[46.1 µM]	1%
CCN(CC)S(=O)(=O)c1cc(C(=O)Nc2nncs2)c(Cl)cc1Cl	4%	-14%	-2%	11%	11%	2.3%	7%	-24%
CC(C(=O)N1CCOCC1)N1C(=O)C2C3C=CC(C4CC34)C2C1=O (stereo not given)	-3%[46.1 µM]	.	-1%	2%	-8%	.	6%	6%
Cc1ccc(CN2C(=O)c3ccccc3Sc3ccc(C(=O)NCCN4CCOCC4)cc32)cc1	.	.	1%	-10%	0%	.	.	-19%
COc1ccc(C(=O)C(C)C(C)=O)c(OCc2ccccc2)c1OC (stereo not given)	-30%	.	.	.	16%	.	?	-19%
Cc1ccc2sc(C)cc(=O)c2c1	28%	.	.	.	28%	.	-5%	-8%
CC(Sc1nn(-c2ccc(Cl)cc2)c(=S)s1)C(=O)NCC1CCCO1 (stereo not given)	5%	.	5%	.	-7%	.	1%[46.1 µM]	-6%
CCOC(=O)CN1C(C(=O)c2ccccc2)=C(OC(=O)C(C)(C)C)c2ccccc2S1(=O)=O	?	14%	.	.	.	-8.2%	10%[46.1 µM]	?
O=C(Nc1ccc(Br)cn1)C1CCCN1S(=O)(=O)c1ccccc1 (stereo not given)	-29%	-1%	2%	-1%	-2%	0.6%	-6%	-7%
CCC(=O)N1CCc2cc(S(=O)(=O)NCCC(=O)Nc3ccc(OC)c(Cl)c3)ccc21	-1%[46.1 µM]	2%	.	.	.	-3.6%	-23%[46.1 µM]	0%
O=C(COC(=O)c1ccc([N+](=O)[O-])o1)NC12CC3CC(CC(C3)C1)C2	8%[46.1 µM]	.	-27%	.	0%	.	-6%[46.1 µM]	-2%
CC(=O)c1ccc(N2CCN(C(=O)CCS(=O)(=O)c3ccc4c(c3)CCN4C(C)=O)CC2)cc1	0%[46.1 µM]	.	4%	-7%	7%	.	25%[46.1 µM]	-4%
O=C(N/N=C/c1ccco1)c1cc(-c2ccc3ccccc3c2)n[nH]1	13µM*	-22%	-17%	-9%	21%	-12%	?	-5%
Cc1ccc(OCCn2c(=S)[nH]c3ccccc32)c(C(C)C)c1	.	.	9%	3%	-26%	.	.	-18%
CC1=C(C(=O)OC(C)C)C(c2cccc(F)c2)N2C(=O)C(C)SC2=N1 (stereo not given)	-22%	0%	7%	?	15%	-8.4%	-1%	-28%
Cc1cc[n+](-c2nc3ccccc3nc2[N-]S(=O)(=O)c2cccs2)cc1C	1%	-2%	2%	0%	6%	-2.0%	4%	31%[activator]
CCOC(=O)C1CCCN(C(=O)c2ccc(OC(C)=O)cc2)C1 (stereo not given)	-3%	2%	4%	10%	-16%	-0.3%	-27%	-15%
C=CCOc1ccccc1CN1CCC(n2nccc2NC(=O)C2CCOC2)CC1 (stereo not given)	-13%	.	-2%	2%	1%	.	9%	-9%
COc1ccc(C(=O)N2CCN(C(=O)Cc3ccccc3)CC2)cc1	2%[46.1 µM]	.	-2%	.	-1%	.	-6%	-18%
Cc1ccc(NC(=S)c2ccc3ccccc3n2)c(C)c1	21%[46.1 µM]	.	-10%	0%	-10%	.	?	35%[activator]
CC(=O)Nc1ccc(OCCOc2ccccc2C(C)=O)cc1	-17%[46.1 µM]	.	-1%	-15%	2%	.	-29%[46.1 µM]	-8%
CN(C)S(=O)(=O)c1cccc(COC(=O)c2cccnc2Cl)c1	-28%[46.1 µM]	.	-1%	3%	5%	.	6%[46.1 µM]	3%
COc1ccc(Cl)cc1C(=O)Nc1ccc(NC(=O)C(C)C)cc1	-17%[46.1 µM]	.	-1%	-9%	12%	.	?	-27%
Cc1ccc(-c2noc(-c3ccc(N4CCCCC4C)c([N+](=O)[O-])c3)n2)cc1 (stereo not given)	7%[46.1 µM]	10%	.	.	.	-5.1%	17%[46.1 µM]	0%
CCCN1CCN(C(=O)c2noc3c2COc2ccc(C)cc2-3)CC1	.	.	?	2%	4%	.	.	-21%
